From PubChem
Cruzain inh noDet – blocks cruzain activity in detergent-free assay. purified cruzain, Z-FR-AMC fluorescence, no detergent. Potency, µM, for the others: max response, negative = inhibition, usual class: inhibitors. P25779. 200,000 compounds, 2.3% hits. AID 1476; active = well fitted curve in the direction sought with a large enough effect; inconclusive = small, poorly fitted or top-dose-only effect, or another doubt; inactive = no such curve, though single readings can be large; an effect the other way counts as inactive or inconclusive;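 also: plate controls were enzyme without inhibitor for no effect and buffer without enzyme for full effect; nearly all actives have a fitted effect of over 40% in size; top concentration of the series not given in the record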
Target sequence (P25779 123-467 limits assumed): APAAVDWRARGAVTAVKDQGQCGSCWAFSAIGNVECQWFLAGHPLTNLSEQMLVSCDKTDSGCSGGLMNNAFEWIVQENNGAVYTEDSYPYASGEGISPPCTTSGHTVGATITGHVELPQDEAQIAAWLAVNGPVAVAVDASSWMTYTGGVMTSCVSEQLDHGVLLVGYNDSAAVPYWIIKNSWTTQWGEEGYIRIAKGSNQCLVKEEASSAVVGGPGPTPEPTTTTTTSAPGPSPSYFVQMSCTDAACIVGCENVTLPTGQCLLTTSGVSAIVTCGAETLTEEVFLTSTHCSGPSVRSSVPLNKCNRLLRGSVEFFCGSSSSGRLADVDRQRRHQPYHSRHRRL
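Detergent-free condition (0.00005% Triton X-100) in acetate buffer pH 5.5 with DTT. 1.5 nM enzyme and compound were pre-mixed 15 min, then 2 uM Z-FR-AMC substrate added; reaction progress from fluorescence change between first and third reads (60 s).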
Marburg entry inh – inhibitors of Marburg virus binding or cell entry | Marburg virus pseudotyped entry inhibition, cell reporter; control for the full effect not named in the record; about a third of the inactives were read at about 46 µM | Potency, µM (doses to about 37.8 µM), for inactives: at the top dose activity change, negative = inhibition, hits mostly inhibitors | 300,000 compounds, 1.8% hits | AID 540276; active = well fitted inhibition curve with a large enough effect; inconclusive = small, poorly fitted or top-dose-only effect, or effect the other way; inactive = flat fitted curve, though single readings scatter; tested in HEK293 cells; about a fifth of its hits are not listed in these tables; also: % is scaled to controls: 0 for no effect and ±100 for the full control effect; luciferase read-out
NS1 function inh – inhibitors of influenza NS1 protein function | S. cerevisiae slowed by influenza A NS1, growth recovery by OD600 | Potency, µM (doses to about 46.1 µM), for the others: at the highest dose activity, positive = more growth | 270,000 compounds, 0.4% hits; also: actives are rising curves; nearly all actives have a fitted effect of over 50% in size
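In this qHTS, NS1 from influenza A is expressed in budding yeast, where it slows growth. Cells are switched from glucose to 2% galactose medium (pH 6.0, -URA), treated with compound, and growth recovery is read at OD600.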
LASV entry inh – Lassa virus entry inhibition. AID 540256. Lassa virus pseudotype entry inhibition, cell reporter; control for the full effect not named in the record. 300,000 compounds, 1.2% hits. Potency, µM (top dose mostly 37.9 µM), inactives show at the top dose activity change, negative = inhibition, hits mostly inhibitors; active means well fitted inhibition curve with a large enough effect; inconclusive means small, poorly fitted or top-dose-only effect, or effect the other way; inactive means flat fitted curve, though single readings scatter; tested in HEK293 cells; also: % is scaled to controls: 0 for no effect and ±100 for the full control effect; nearly all actives have a fitted effect of over 50% in size; luciferase read-out
Cruzain inh Det – inhibitors of Trypanosoma cruzi cruzain with detergent. P25779. purified cruzain, Z-FR-AMC fluorescence, 0.01% Triton. Potency, µM, for inactives: max response, negative = inhibition, usual class: inhibitors. 200,000 compounds, 0.43% hits. AID 1478; active = well fitted curve in the direction sought with a large enough effect; inconclusive = small, poorly fitted or top-dose-only effect, or another doubt; inactive = no such curve, though single readings can be large; an effect the other way counts as inactive or inconclusive;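 also: plate controls were neutral wells for no effect and buffer without enzyme for full effect; nearly all actives have a fitted effect of over 40% in size; top concentration of the series not given in the record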
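Cruzain (1.5 nM) preincubated 15 min at RT with compound in 100 mM sodium acetate pH 5.5, 5 mM DTT, 0.01% Triton X-100. Reaction started with 2 uM Z-FR-AMC; AMC fluorescence (ex 360/em 450 nm) change over 60 s gave rate.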
SARS PLP yeast – inhibitors of SARS-CoV papain-like protease in yeast. S. cerevisiae expressing SARS-CoV PLpro, growth rescue; control for the full effect not named in the record. Potency, µM (top dose mostly 32.9 µM), for inactives: at the highest dose activity, positive = growth rescue. 330,000 compounds, 0.19% hits; also: 0% is about no effect; nearly all actives have a fitted effect of over 55% in size; growth read by luminescence after 48 h
RE007 growth inh – less growth of the S. pombe RE007 Vpr strain; S. pombe RE007 Vpr strain, BacTiter-Glo ATP luminescence, 24 h; control for the full effect not named in the record; Potency, µM (series often up to 92.2 µM), for inactives: at the highest dose activity change, negative = less growth; 360,000 compounds, 0.21% hits; active = well fitted falling curve with a large enough effect; inconclusive = small, poorly fitted or top-dose-only effect; inactive = no such curve, though single readings can be large or run the other way;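 also: % is scaled to controls: 0 for no effect and ±100 for the full control effect; nearly all actives have a fitted effect of over 50% in size; the assay follows cell death caused by Vpr and the record does not say whether a fall means rescue or toxicity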
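Fission yeast RE007 carrying one integrated HIV-1 vpr copy, seeded at OD 0.01 in PMG+AL medium with 23 nL pinned compound. Grown 24 h at 30 degrees; viability read by BacTiter-Glo luminescence after 5 min.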
2A StopGo – FMDV 2A StopGo reporter, luciferase signal; human cells with a luciferase reporter of 2A StopGo recoding; control for the full effect not named in the record; Potency, µM (doses to about 57.9 µM), for the others: top-dose signal change, negative = less light; 410,000 compounds, 1.2% hits; active = well fitted falling curve with a large enough effect; inconclusive = small, poorly fitted or top-dose-only effect; inactive = no such curve, though single readings can be large or run the other way; tested in HEK293T cells; also: % is scaled to controls: 0 for no effect and ±100 for the full control effect; nearly all actives have a fitted effect of over 45% in size; luciferase light after 4 h
An asterisk follows results filed as active; ? = inconclusive; · = not tested or not shown; & = joins results of further samples; [ ] = dose if it differs, or a comment. Unless noted, calls follow the shape of the dose curve; as a rule, active means well fitted rising curve with a large enough effect; inconclusive means small, poorly fitted or top-dose-only effect; inactive means no such curve, though single readings can be large or run the other way. Potency is read from the fitted curve at half-maximal effect.

SMILES	Cruzain inh noDet	Marburg entry inh	NS1 function inh	LASV entry inh	Cruzain inh Det	SARS PLP yeast	RE007 growth inh	2A StopGo
O=c1cc(CSc2nnc(Nc3ccccc3F)s2)nc2sccn12	·	15%[46.1 µM]	2%	6%	·	1%	-14%	-3%
O=C(Nc1ccc(NS(=O)(=O)c2ccccc2)cc1)c1cccnc1	·	4%	2%	-2%	·	0%	-14%	3%
O=[N+]([O-])c1ccc(N2CCCCC2)s1	·	15%[46.1 µM]	·	18%[46.1 µM]	·	-1%	4%	6%
COc1ccc(C(=O)NC2CCCCC2)cc1S(=O)(=O)N1CCOCC1	·	5%[46.1 µM]	-8%	-4%[46.1 µM]	·	3%	-2%	5%
NCCNC(=O)c1ccc(Cl)cc1	-3%&2%	?	-3%	·	5.9%&-2.9%	·	·	·
COc1ccccc1CC(=O)N1CCN(c2ccc([N+](=O)[O-])cc2)CC1	·	·	3%	·	·	0%	-20%	?
CCc1c(O)nc(SCC(=O)N2CCCCC2)n(-c2ccccc2C)c1=O	-2%	4%	6%	2%	3.7%	3%	-11%	10%
O=C(CSCC(=O)N1CCCCC1)OCC(=O)c1c[nH]c2ccccc12	6%	1%	-7%	?	-1.8%	0%	11%	10%
O=C(C1CCN(Cc2cccs2)CC1)N1CCN(Cc2ccc3c(c2)OCO3)CC1	·	?	·	0%	·	-9%	4%	-21%
COc1ccccc1NC(=S)N(CCCN1CCOCC1)Cc1cn(C)c2ccccc12	4%	?	10%	-10%	0.3%	21%	-19%	-1%
CC(C)Cc1c(O)nc(SCC(=O)Nc2ccc3c(c2)CCC3)[nH]c1=O	-14%	?	13%	9%	-9.5%	3%	5%	·
CCCc1nnc(NC(=O)Nc2ccccc2OC)s1	-4%	?	-7%	-21%	-3.6%	14%	-18%	14%
CN(n1cnc2ccccc2c1=O)S(C)(=O)=O	·	·	-2%	·	·	-1%	0%	-11%
COc1ccccc1OCCCn1c(C2CC(=O)N(c3ccc(F)cc3)C2)nc2ccccc21 (stereo not given)	-18%	-3%[46.1 µM]	·	-7%[46.1 µM]	-2.3%	·	·	?
Cc1ccc(OCCOCCOc2ccc(Br)cc2/C=N\NC(=O)c2ccncc2)cc1	?	-44%	4%	?	-7.1%	24%	-13%	-14%
Cc1ccc(NC(=O)C(=O)NCCOc2ccccc2Cl)cc1	?	-4%	-2%	3%	-2.9%	-1%	·	-10%
CS(=O)(=O)N1CCC(C(=O)Nc2ccc3c(c2)OCCO3)CC1	-1%	16%	8%	-4%	3.4%	6%	0%	·
Cc1ccc(N=C2S/C(=C/c3cccc(OCC(=O)O)c3)C(=O)N2C)cc1C	·	-8%	2%	-2%	·	3%	7%	-17%
N#C/C(=C\c1ccccc1[N+](=O)[O-])C(=O)NCc1ccccc1	·	6%[46.1 µM]	-1%	-1%[46.1 µM]	·	-3%	0%	-30%
COc1ccc(NCc2cc3ccccc3[nH]c2=O)cc1	-4%	4%&4%	?	-10%	-4.3%	11%	-17%	20%
COc1ccc(NC(=O)CC2SC(=Nc3ccccc3)NC2=O)c(OC)c1 (stereo not given)	-3%	5%	-31%	·	-1.3%	-3%	1%	-12%
COc1ccccc1Nc1nc(C)cc(C)c1C(N)=O	-8%	-1%	-1%	2%	-2.0%	3%	8%	-7%
Nc1ncc(-n2cncn2)c(-c2ccc(Cl)cc2)n1	·	4%[46.1 µM]	-2%	10%[46.1 µM]	·	1%	8%	-14%
COc1ccc(S(=O)(=O)N2CCOC23CCN(S(=O)(=O)c2ccc(F)cc2)CC3)cc1	·	27%	·	-36%	·	1%	-26%	0%
Cc1ccc(NC(=O)C2CC(=O)N(CCc3ccccc3)C2)c(C)c1 (stereo not given)	·	12%[46.1 µM]	·	1%	·	1%	4%	1%
O=C(CC(Nc1ccccc1Cl)C(=O)O)c1ccccc1 (stereo not given)	·	23%[46.1 µM]	5%	?	·	-1%	-10%	55%[activator]
CN(CC(O)COc1ccc(S(=O)(=O)N2CCOCC2)cc1)C1CCCCC1 (stereo not given)	2%	-2%	16%	1%	9.1%	·	-5%	18%
O=C(Cn1ccsc1=NC(=O)c1ccco1)c1ccccc1	-8%	6%	-2%	27%	0.6%	-3%	1%	-19%
COc1ccc(S(=O)(=O)Nc2cc3c(C(=O)OC(C)C)c(C)oc3c3ccccc23)cc1	?	·	·	?	-4.0%	·	·	6%
Cc1ccc(-n2c(SCC(=O)OC(C)C)nnc2-c2ccccn2)cc1	2%	5%	-11%	6%	2.5%	3%	15%	1%
COc1ccc(NC(=O)/C(Cl)=C(/Cl)S(=O)Cc2ccc(C)cc2)cn1 (stereo not given)	?	·	-230%	·	-3.8%	-35%	·	·
CC(C(=O)NC(c1ccccc1)c1ccccc1)N1CCOCC1 (stereo not given)	·	-6%[46.1 µM]	15%	-3%	·	1%	-16%	44%[activator]
COC(=O)C1=C(C(=O)OC)[C@@H]2Nc3ccccc3[C@@]23C[C@@H](C(=O)OC)N(C(=O)COCc2ccccc2)C3=N1	·	6%[14.2 µM]	·	?	·	·	-12%	-9%
CC(C)c1ccc(NC(=O)C2CCCN(S(=O)(=O)c3ccc4[nH]c(=O)ccc4c3)C2)cc1 (stereo not given)	19%	·	·	?	-0.9%	·	·	?
N#CCCN(C(=O)COc1ccc(C#N)cc1)c1ccc(F)cc1	·	2%[46.1 µM]	·	0%[46.1 µM]	·	1%	24%	2%
Cc1cccc(CCNC(=O)c2ccc3c(c2)N(Cc2ccccc2F)C(=O)c2ccccc2S3)c1	-80%	·	·	-8%[46.1 µM]	-2.2%	·	·	0%
Cc1ccc(CNC(=O)CCCc2nnc3n(CC(C)C)c(=O)c4sccc4n23)cc1	-8%	·	·	23%[46.1 µM]	-1.7%	·	·	-16%
CCOC(=O)c1ccc(N2C(=O)C=CC2=O)cc1	-24%	?	-138%	-11%	-4.0%	-27%	5.6µM*	0%
CCOc1ccc(-c2nnn(CC(=O)NCCc3c[nH]c4ccccc34)n2)cc1	-17%	5%	2%	-4%	-7.6%	-4%	-2%[3.69 µM]	-13%
O=C(NN=C1CCCCC1)NC1CCCCC1	3%	?	1%	3%	-0.6%	?	1%	-24%
Cn1c(=O)c2c(ncn2CC(=O)Nc2cccc(Cl)c2Cl)n(C)c1=O	?	·	·	15%[46.1 µM]	28µM*	·	·	-17%
CCOC(=O)N1CCN(C(=S)Nc2ccc3nc(N4CCN(CC)CC4)cc(C)c3c2)CC1	14%	?	-5%	9%	-6.6%	17%	-1%	6%
COc1ccc(CCNC(=O)COC(=O)c2cc(S(=O)(=O)N3CCOCC3)ccc2C)cc1OC	·	3%	·	-1%	·	-4%	-5%	-28%
CC(C)CCOP(=O)(c1ccc(N(C)C)cc1)C(O)c1c(Cl)cccc1Cl (stereo not given)	·	·	6%	·	·	-2%	26%	51%[activator]
O=C(OCc1ccccc1Cl)c1ccccc1C(=O)c1ccccc1	3%	26%	2%	5%	2.7%	-26%	-18%	86%[activator]
Cc1n[nH]c(=S)n1/N=C/c1ccccc1OCc1ccc(Cl)cc1Cl	16µM*	0%	16%	?	-1.3%	-13%	4%	-11%
COc1ccc(C)cc1NC(=O)CCCN1C(=S)NC(C)(C)CC1C (stereo not given)	24%	7%	7%	?	1.7%	-6%	-26%	-6%
COc1ccc(OC)c(-c2cc(C(=O)NCc3ccc(Cl)cc3)no2)c1	-4%	-18%&-18%[46.1 µM]	·	5%[46.1 µM]	-3.3%	-4%	3%	0%&15%
Cc1ccccc1NC(=O)N1CCN(C(=O)c2ccco2)CC1	·	·	-1%	·	·	0%	34%	1%
CCCNC(=O)c1onc(CSc2ccncc2)c1C(=O)NCCC	·	·	0%	·	·	-4%	1%	-5%
CCc1cccc(NC(=O)CN2C(=O)CN=C(c3ccccc3F)c3cc(Cl)ccc32)c1	9%	·	·	?	-7.4%	·	·	-22%
CN(C(=O)CSc1nc2ccc(NC(=O)COc3ccc(F)cc3)cc2s1)c1ccccc1	2%	?	·	?	-4.3%	·	·	?
O=C(NC(Cc1ccccc1)C(=O)O)/C(=C\c1ccccc1F)NC(=O)c1ccccc1 (stereo not given)	·	24%[46.1 µM]	2%	-5%	·	0%	16%	-9%
Nc1c(-c2cccc([N+](=O)[O-])c2)nc2ccccn12	20µM*	?	?	?	-10%	-25%	6%	5%
COc1ccc(NC(=O)N2C3CCCC2CC(NC(=O)c2ccccc2)C3)cc1 (stereo not given)	·	13%[46.1 µM]	-5%	8%[46.1 µM]	·	0%	7%	19%
CN1c2ccc(C=O)c3c(C=O)ccc(c23)N(C)C1(C)C	·	10µM*	16%	?	·	-4%	-7%	?
Cn1cnc(S(=O)(=O)N2CCN(c3ccccc3)CC2)c1	·	·	9%	·	·	2%	16%	-9%
COc1ccc(C(=O)Nc2cc(Cl)ccc2C(=O)O)cc1	·	9%[46.1 µM]	-5%	-8%[46.1 µM]	·	-4%	8%	-2%
COc1ccc(NS(=O)(=O)c2cccc(Cl)c2)cc1S(=O)(=O)N1CCCCC1	3%	0%	?	?	2.8%	-2%	20%	26%
CN(CC(=O)Nc1cccc(F)c1)C(=O)c1ccc2c(c1)CC(c1ccccc1)OC2=O (stereo not given)	·	?	·	-25%	·	-6%	-5%	?

Next part.
SMILES	Cruzain inh noDet	Marburg entry inh	NS1 function inh	LASV entry inh	Cruzain inh Det	SARS PLP yeast	RE007 growth inh	2A StopGo
COc1ccc(/C=C2/C(=O)ON=C2C)cc1Cl	·	-9%[46.1 µM]	-1%	-4%[46.1 µM]	·	1%	-6%	?
O=c1cc(Cc2ccc([N+](=O)[O-])cc2)[nH]c(=O)[nH]1	·	2%	·	6%[46.1 µM]	·	·	6%	-12%
CCc1cc(=O)oc2cc(C)cc(OC(C)C(=O)NCC(O)c3ccccc3)c12 (stereo not given)	·	·	-18%	·	·	1%	-10%	14%
C=CCn1c(CNC(=O)c2ccccc2C)nnc1SCC(=O)NC1CCCC1	5%	-4%	-4%	8%	-0.8%	0%	-26%	-9%
CCOC(=O)Cn1nnnc1C(CC)N(Cc1cccs1)Cc1cc2ccc(OC)cc2[nH]c1=O (stereo not given)	?	?	-4%	1%	-3.3%	9%	-12%	-16%
